GLA inh pH 4.5: blocks human alpha-galactosidase A at pH 4.5; AID 1467; P06280; 230,000 tested, under 10 active; purified enzyme, 4-MU-alpha-Gal fluorescence, pH 4.5; activity change, negative = inhibition, % at 105 µM; inconclusive = small, poorly fitted or top-dose-only inhibition, or a rising curve; inactive = flat fitted curve, though single readings scatter; no compound was filed as active;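 further: 0% = full activity with enzyme and -100% = basal without enzyme; dose as in the result columns while the protocol names 77 µM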
Target sequence (P06280 whole entry, looked up): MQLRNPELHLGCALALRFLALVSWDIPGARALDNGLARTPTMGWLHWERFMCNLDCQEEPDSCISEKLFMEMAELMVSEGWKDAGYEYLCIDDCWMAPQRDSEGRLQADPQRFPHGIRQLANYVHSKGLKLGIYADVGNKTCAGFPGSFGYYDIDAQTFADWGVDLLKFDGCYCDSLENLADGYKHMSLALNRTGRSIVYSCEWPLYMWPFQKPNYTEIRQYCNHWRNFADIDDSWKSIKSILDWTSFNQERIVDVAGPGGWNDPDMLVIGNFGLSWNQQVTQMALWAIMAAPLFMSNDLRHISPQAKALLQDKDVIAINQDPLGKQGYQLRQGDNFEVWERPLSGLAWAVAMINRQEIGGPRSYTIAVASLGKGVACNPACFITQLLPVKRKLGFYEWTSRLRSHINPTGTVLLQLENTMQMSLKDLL
Rango-impB inh: prevents formation of the Rango-importin beta complex | Rango CFP/YFP FRET sensor + importin beta, 45 min | Potency, µM (top dose mostly 92.2 µM), inactives show at the highest dose inhibition of complex formation | AID 540263 | 340,000 compounds, 0.031% hits; active = rising FRET ratio curve, often small or poorly fitted; inconclusive = mostly compound fluorescence or quenching in the first reads; inactive = flat curves in all reads;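 further: potency means the concentration at half of the fitted maximal effect; 0% = DMSO wells and 100% = buffer wells lacking importin beta; nearly all actives have a fitted effect of over 15% in size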
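Inhibition scored from the CFP 486 nm/YFP 530 nm FRET ratio 45 min after adding 0.125 microM importin beta to 50 nM Rango biosensor preincubated 5 min with compound (room temperature, PBS with DTT, Tween-20, BSA). No-importin wells as positive control.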
miR-21 reporter: raises the signal of a miR-21 reporter. HeLa miR-21 FLuc reporter, luciferase, 48 h. Potency, µM (doses to about 38.3 µM), for the others: at the highest dose reporter change, positive = more light. 340,000 tested, under 10 active. AID 2288; active = well fitted rising curve with a large enough effect; inconclusive = small, poorly fitted or top-dose-only effect; inactive = no such curve, though single readings can be large or run the other way;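 further: % of control where 0% means no effect; miR-21 action dims this reporter so a rising signal means less miR-21 action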
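HeLa cells endogenously expressing miR-21, stably carrying CMV-driven firefly luciferase with a downstream miR-21 binding site, 2000 cells/well. Titrations up to approximately 40 uM, 48 hours; luciferase luminescence read.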
Rango release inh: inhibitors of RanGTP-induced Rango-importin beta complex dissociation; Potency, µM (titrated, usually from 46.1 µM), without a hit: at the top dose activity change, negative = inhibition; O95149+P62826; AID 540253; 340,000 compounds, 0.071% hits; Biochemical FRET Rango-importin beta, RanGTP-induced dissociation; active means falling FRET ratio curve, often poorly fitted, with flat reads before Ran was added; inconclusive means other falling curves, or compound fluorescence or quenching; inactive means flat or rising ratio curve;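 further: potency means the concentration at half of the fitted maximal effect; % of control where 0% means no effect; nearly all actives have a fitted effect of over 45% in size; -100% = wells without RanGTP and RCC1; the record marks most hits as doubtful in a second field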
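Rango/importin beta premix (0.1/0.25 uM final), PBS + 1 mM DTT + 0.02% Tween-20 + 0.1% BSA; cpd 5 min RT; FRET pre-read; + RanGTP-RCC1 (0.6 uM Ran, 2 mM GTP, 0.2 uM RCC1); 45 min RT; FRET post-read, ex 430, em 486/530 nm.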
* hit, by the source's call; u = inconclusive; x = no result given; & = joins results of further samples; [ ] = another dose, or the depositor's remark.

SMILES	GLA inh pH 4.5	Rango-impB inh	miR-21 reporter	Rango release inh
O=C1c2oc3ccc(F)cc3c(=O)c2C(c2ccccc2)N1CC1CCCO1 (stereo unspecified)	1	2.4%	-1%	-8%
CCOc1ccc(/C=C(/NC(=O)c2ccc(Cl)cc2)C(=O)O)cc1OCC	-5	0.5%	-6%	-3%
Clc1ccc(CN2CCCCCC2)cc1	x	-0.2%	0%	0%
COc1cc(OC)c(C2C3=C(CCCC3=O)Nc3nc4ccccc4n32)cc1OC (stereo unspecified)	11	0.5%	-6%	-4%
Cc1ccccc1NC(NC(=O)c1cccnc1)C(Cl)(Cl)Cl (stereo unspecified)	12	-0.7%	-7%	9%
O=C(COc1ccccc1F)Nc1ccc(N2CCOCC2)cc1N1CCOCC1	x	-0.5%	x	-6%
OC(COC(c1ccc(F)cc1)c1ccc(F)cc1)CN1CCCC1 (stereo unspecified)	x	-0.2%	-10%	u
COc1cccc(-c2cc(C(F)(F)F)n3ncc(C(=O)O)c3n2)c1	-14	2.9%	-6%	-4%
COc1ccc(Cl)cc1NC(=O)Nc1ccc(C(=O)N2CCCC2)cc1	x	-0.8%	-6%	-27%
Cc1cccc(C)c1NC(=O)CN(C)C(=O)c1ccccc1Cc1ccccc1	x	-3.3%	x	-8%
COc1ccccc1NC(=O)COc1ccc(/C=N/NC(=O)CSCc2ccc(Cl)cc2)cc1	-2	0.9%	-1%	7%
CCOC(=O)C1(Cc2cccc(F)c2)CCN(Cc2cnn(CC)c2C)CC1	7	-5.4%	-2%	7%
CCOC(=O)c1ccc(NC(=O)CCSCCc2ccccn2)cc1	-2	5.2%	-10%	-5%
O=[N+]([O-])c1cccc(N2Cc3ccccc3C2)c1	-4	-0.5%	-41%	3%
Cc1ccc(C(=O)n2cnnc2N)cc1	4	-1.5%	-5%	-5%
CCc1cc(C)cc(OCCNC(=O)c2ncn[nH]2)c1	1	0.7%	-12%	30%
N#Cc1cc2ccccc2nc1SCC(=O)Nc1ccc(S(=O)(=O)N2CCCC2)cc1	1	u	11%	u
Cc1cc(NC(=O)CSc2nnc(NCc3ccco3)s2)no1	x	-3.2%	x	-14%
Cc1cccc(C(=O)N(Cc2nc3ccccc3c(=O)[nH]2)C2CCCCC2)c1	4	6.8%	14%	-10%
COc1ccc(Cl)cc1NC(=O)NCc1ccccn1	x	-0.2%	-2%	0%
O=C(CN1C(=O)NC2(CCCCC2)C1=O)NCCCSc1ccccc1	x	-1.0%	x	25%
COc1cc(NC(=O)Cn2cnc3c(nc4n3CCCCC4)c2=O)cc(OC)c1OC	x	-3.4%	-1%	2%
O=C(/C=C/c1ccco1)N1CCN(c2ccc(F)cc2)CC1	2	-1.1%	-12%	12%
Cc1ccc(F)cc1NC(=O)CCC(=O)c1cccs1	-7	-2.3%	-7%	-5%
COc1ccc(/C(O)=C2/C(=O)C(=O)N(CCCN(C)C)C2c2ccccc2)cc1OC (stereo unspecified)	-7	-0.1%	-10%	-1%
COc1ccc(-n2c(C)nc3sc4c(c3c2=O)CCCC4)cc1	-4	x	-4%	x
CCc1cccc(NC(=O)c2ccc3c(=O)n4c(nc3c2)CCCCC4)c1	-13	2.2%	14%	-9%
Cc1ccc(CCNC(=O)C2CCC(=O)N2Cc2cccnc2)cc1 (stereo unspecified)	-5	u	0%	-19%
c1ccc(-c2nnc(N3CCOCC3)c3ccccc23)cc1	-3	-3.9%	-1%	-5%
COc1ccccc1/C=C(/C(=O)OCC(=O)Nc1ccccc1C(C)C)c1ccccc1	-2	3.0%	-4%	-4%
CCc1c(C)nc2ncnn2c1N1CCCC(C(=O)Nc2ccc(NC(C)=O)cc2)C1 (stereo unspecified)	8	-2.6%	-5%	-5%
CCOC(=O)c1c(N)sc2c1CCN(CCc1ccccc1)C2	x	u	6%	u
CC(C)N=C(Nc1ccccc1)c1cccnc1	6	-1.6%	-3%	-17%
Cc1c(NC(=O)Nc2ccccc2)cccc1[N+](=O)[O-]	-1	u	-5%	-27%
CSc1nsc(NC(=O)Nc2ccccc2)n1	x	-1.2%	x	13%
Cc1onc(-c2ccccc2)c1C(=O)n1cccn1	-13	-2.3%	-3%	-3%
CCN(CC)S(=O)(=O)c1cccc(NN=c2c(=O)c3ccccc3c2=O)c1	-1	-1.0%	3%	-3%
CC(C)COC(=O)Nc1nnc(SCCOc2ccccc2)s1	7	-1.7%	-1%	-6%
CC12CCC(=O)N1C(C(=O)N1CCN(S(=O)(=O)c3cccc(Cl)c3)CC1)CS2 (stereo unspecified)	x	-2.2%	x	2%
COc1cc(SC)ccc1C(=O)NCCc1ccccc1	-8	5.4%	-39%	-3%
O=C(CSCc1c(F)cccc1Cl)NCCSCc1ccco1	8	0.9%	-16%	25%
COc1ccc(Cl)cc1N(CC(=O)N1CCCCCC1)S(C)(=O)=O	x	1.9%	-3%	2%
CCC(CC)C(=O)NCCN1CCN(C(=O)C(CC)CC)CC1	-3	6.2%	2%	-3%
CCC1CCCCN1CCCNC(=O)CSc1nc2nc(C)c(Cc3ccccc3)c(C)n2n1 (stereo unspecified)	x	3.2%	-1%	0%
O=C(CCCn1c(=S)[nH]c2cc3c(cc2c1=O)OCO3)N1CCN(c2ccccc2F)CC1	0	1.2%	-9%	-9%
Cc1ccc(OCC(=O)Nc2ccc([N+](=O)[O-])cc2)cc1	8	6.2%	-27%	13%
O=C(Cn1cnc2c(nnn2Cc2ccc(F)cc2)c1=O)N1CCCCC1	-1	-0.1%	-5%	13%
CCCn1nc(C(=O)NNC(=O)c2cccc(C)c2)c2ccccc2c1=O	x	0.3%	x	-10%
O=C(COCc1cc(-c2ccc3c(c2)OCO3)on1)N1CCN(c2cccc(Cl)c2)CC1	x	0.0%	-3%&-2%	-8%
COc1ccc(C)cc1S(=O)(=O)n1cnc(C)c1	x	-3.2%	-6%	0%
CCOCCCNC(=O)C(Cc1ccccc1)NS(=O)(=O)c1cccc2nsnc12 (stereo unspecified)	2[21.1 µM]	1.0%	-2%	29%
CCCCCOc1ccc(NC(=O)C(=O)NCC2CCCN2CC)cc1 (stereo unspecified)	3	-0.5%	-18%	20%
CC(Oc1cccc(Cl)c1)C(=O)N1CCN(c2ncccn2)CC1 (stereo unspecified)	x	4.0%	x	-2%
O=C(NCCCn1ccnc1)c1ccc(COc2ccccc2)o1	x	-1.1%	x	0%
COc1ccc(Cn2c(O)c(C=Nc3ccc(C)cc3)c3ccccc3c2=O)cc1	-4	-1.4%	0%	0%
CCNC(=S)N/N=C/c1c(Cl)cccc1Cl	0	0.3%	-10%	-10%
CC(C)c1ccc(NC(=O)CCC(=O)NCc2ccco2)cc1	x	-1.8%	-3%	-7%
Cc1ccc(CNC(=O)CCNS(=O)(=O)c2ccc(C)cc2)cc1	-2	0.2%	0%	9%
CCCN1CCN(CC(=O)Nc2nncs2)CC1	x	-0.7%	-2%	13%
COc1ccc(NC(=O)CN(C)CC(=O)Nc2ccc(Cl)c(S(=O)(=O)N(C)C)c2)cc1	-20	-1.0%	-1%	-20%
More records follow.
SMILES	GLA inh pH 4.5	Rango-impB inh	miR-21 reporter	Rango release inh
O=C(COc1ccccc1)Nc1ccc(N2CCN(C(=O)c3cccs3)CC2)cc1	-13	-1.7%	18%	6%
CCC1CN(C(=O)N2CCC(C(=O)NCCc3ccccc3OC)CC2)c2ccccc2O1 (stereo unspecified)	x	2.0%	13%	-9%
COC(=O)c1cc(NC(=O)CSc2nncn2C)cc(C(=O)OC)c1	14	2.8%	-1%	3%
CCOC(=O)c1sc2ncn(C(C)C(=O)OCC)c(=O)c2c1C (stereo unspecified)	-17	-1.4%	-22%	0%
O=C(CSc1ncccn1)NCCC1=CCCCC1	x	0.0%	x	-12%
CCn1c(CC(=O)Nc2cccc(OC)c2)nnc1SCC(=O)Nc1nccs1	8	2.5%	-1%	10%
O=C(CCN1CCOCC1)N1CCCC(Nc2cccc(F)c2)C1 (stereo unspecified)	x	-4.3%	-4%	5%
CC1CCCCN1C(=O)CSc1nc2c(c(=O)n(C)c(=O)n2C)n1C (stereo unspecified)	x	2.2%	11%	0%
COc1nccnc1NS(=O)(=O)c1ccc(NCc2ccccc2O)cc1	x	0.4%	1%	0%
O=C(Cn1nc([N+](=O)[O-])nc1Br)NC(c1ccccc1)c1ccccc1	-4	-3.3%	7%	-14%
Brc1cc2c(cc1Cn1c(-c3cncs3)nc3ccccc31)OCO2	5	0.5%	-9%	2%
Cc1ccc(S(=O)(=O)CCC(=O)OCC(=O)N(C)CC(=O)Nc2ccc(F)cc2)cc1	x	-1.7%	x	2%
O=C(c1ccc(-n2cccc2)cc1)N1CCCCC1	-4	-6.2%	-38%	-18%
O=S(=O)(N/N=C/c1c(F)cccc1Cl)c1ccccc1	2	2.5%	-1%	2%
O=C(NNS(=O)(=O)c1ccccc1F)c1ccccc1-n1cccc1	x	-1.8%	-2%	-1%
CCn1c(SCC(=O)NCCc2ccc(OC)c(OC)c2)nc2c1c(=O)n(C)c(=O)n2C	3	-0.4%	-3%	2%
CCOC(=O)c1[nH]c(C)c(C(=O)NCc2ccc(OC)cc2)c1C	2	0.0%	-5%	-15%
Cc1cccc(C)c1NC(=O)CNC(=O)c1cccc(S(=O)(=O)NCc2cccs2)c1	x	-3.0%	x	15%
O=C(Nc1ccncc1)c1cccc(S(=O)(=O)N2CCc3ccccc32)c1	x	0.7%	x	18%
O=[N+]([O-])c1cccc(N/N=C/c2cccc3ccccc23)c1	-7	-4.0%	-26%	-14%
O=C(C1CCC1)N1CCCc2cc(S(=O)(=O)N3CCN(c4ccccc4)CC3)ccc21	x	-1.4%	-2%&5%	-1%
CCCCOC(=O)CCNc1n[nH]c(=O)[nH]c1=O	1	-0.3%	-3%	-6%
COc1cc(OC)c(N(C)S(=O)(=O)c2cccc(C(=O)Nc3nccs3)c2)cc1Cl	x	-4.0%	x	13%
COC(=O)NC(C)N1C(=O)C2C3C=CC(C3)C2C1=O (stereo unspecified)	4	u	-3%	1%
O=C(/C=C/c1ccccn1)c1cc(Cl)cc(Cl)c1O	-1	u	28%	u
COc1ccc(NS(=O)(=O)c2cc(NC(=O)COc3ccccc3)ccc2N2CCOCC2)cc1	x	-0.4%	x	-15%
COc1ccc2c(c1)c(C(=O)CN1CCCCC1)c(C)n2C	x	0.6%	x	1%
Cc1cccc(NC(=O)c2nc[nH]c2C(=O)Nc2ccccc2[N+](=O)[O-])c1	-3	2.0%	0%	-3%
Cc1cc2nc(-c3ccc[nH]c3=O)n(Cc3ccc(F)cc3)c2cc1C	x	u	-16%	-26%
CCOC(=O)c1cc(-c2ccccc2)sc1NC(=O)CN1C(=O)NC(CC)(c2ccccc2)C1=O (stereo unspecified)	-4	u	-4%	-14%
Cc1cc(C)n2nc(SCC(=O)NC(=O)NCc3ccco3)nc2n1	1	2.9%	1%	-3%
Cc1nn2c(-c3ccc(F)cc3)ccnc2c1Br	x	-1.1%	-12%	9%
Cc1cc(F)ccc1NC(=O)CCCN(C)S(=O)(=O)c1ccc(F)cc1	x	0.2%	3%	-7%
Cc1cc(C)n(-c2nnc(NCc3ccc(Cl)cc3)nn2)n1	-8	-2.3%	-3%	11%
CN1CCN(c2nc3c(c(=O)n(C)c(=O)n3C)n2Cc2ccc(F)cc2)CC1	x	5.4%	2%	8%

Compound profiles, as listed above:
COc1ccc(Cl)cc1NC(=O)Nc1ccc(C(=O)N2CCCC2)cc1 is entered as GLA inh pH 4.5 = x; Rango-impB inh = -0.8%; miR-21 reporter = -6%; Rango release inh = -27%
O=C(CSCc1c(F)cccc1Cl)NCCSCc1ccco1 is entered as GLA inh pH 4.5 = 8; Rango-impB inh = 0.9%; miR-21 reporter = -16%; Rango release inh = 25%
Cc1ccc(C(=O)n2cnnc2N)cc1 is entered as GLA inh pH 4.5 = 4; Rango-impB inh = -1.5%; miR-21 reporter = -5%; Rango release inh = -5%

Screening results from PubChem.

This is a subset (hit frequency here may not be typical).
